# Screens (PubChem BioAssay)
# SARS PLP yeast = SARS-CoV PLP inhibition in yeast. S. cerevisiae expressing SARS-CoV PLpro, growth rescue; control for the full effect not named in the record. Potency, µM (doses to about 32.9 µM), for the others: at the highest dose activity, positive = growth rescue. actives 0.19% (n = 330,000); note: 0% is about no effect; nearly all actives have a fitted effect of over 55% in size; growth read by luminescence after 48 h
# LASV entry inh = Lassa virus entry inhibition; AID 540256; actives 1.2% (n = 300,000); Lassa virus pseudotype entry inhibition, cell reporter; control for the full effect not named in the record; Potency, µM (top dose mostly 37.9 µM), for inactives: at the highest dose activity change, negative = inhibition, usual class: inhibitors; active means well fitted inhibition curve with a large enough effect; inconclusive means small, poorly fitted or top-dose-only effect, or effect the other way; inactive means flat fitted curve, though single readings scatter; tested in HEK293 cells; note: % is set by controls: 0 for no effect and ±100 for the full control effect; nearly all actives have a fitted effect of over 50% in size; luciferase read-out
# Cruzain inh noDet = inhibitors of Trypanosoma cruzi cruzain without detergent | P25779 | purified cruzain, Z-FR-AMC fluorescence, no detergent | Potency, µM, for inactives: max response, negative = inhibition, usual class: inhibitors | actives 2.3% (n = 200,000); active = well fitted curve in the direction sought with a large enough effect; inconclusive = small, poorly fitted or top-dose-only effect, or another doubt; inactive = no such curve, though single readings can be large; an effect the other way counts as inactive or inconclusive;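 note: plate controls were enzyme without inhibitor for no effect and buffer without enzyme for full effect; nearly all actives have a fitted effect of over 40% in size; top concentration of the series not given in the record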
# Target sequence (P25779 123-467 limits assumed): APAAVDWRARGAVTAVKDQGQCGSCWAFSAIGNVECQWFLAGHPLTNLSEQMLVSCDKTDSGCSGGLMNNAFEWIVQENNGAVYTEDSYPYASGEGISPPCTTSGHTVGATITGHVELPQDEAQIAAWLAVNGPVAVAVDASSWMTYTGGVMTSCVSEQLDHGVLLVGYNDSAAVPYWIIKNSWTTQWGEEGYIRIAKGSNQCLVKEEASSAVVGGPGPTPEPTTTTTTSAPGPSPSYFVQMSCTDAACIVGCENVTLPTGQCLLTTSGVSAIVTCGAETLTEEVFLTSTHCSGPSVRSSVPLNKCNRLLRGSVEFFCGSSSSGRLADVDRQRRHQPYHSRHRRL
#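 Purified cruzain at 1.5 nM, pre-incubated 15 min with compound at room temperature in 100 mM sodium acetate pH 5.5, 5 mM DTT, 0.00005% Triton X-100. Reaction started with 2 uM Z-FR-AMC; AMC fluorescence increase over 60 s gives rate.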
# 2A StopGo = FMDV 2A StopGo reporter, luciferase signal. Potency, µM (titrated, usually from 57.9 µM), for inactives: top-dose signal change, negative = less light. actives 1.2% (n = 410,000). human cells with a luciferase reporter of 2A StopGo recoding; control for the full effect not named in the record; active = well fitted falling curve with a large enough effect; inconclusive = small, poorly fitted or top-dose-only effect; inactive = no such curve, though single readings can be large or run the other way; tested in HEK293T cells; note: % is set by controls: 0 for no effect and ±100 for the full control effect; nearly all actives have a fitted effect of over 45% in size; luciferase light after 4 h
# Marburg entry inh = Marburg virus entry inhibition | Marburg virus pseudotyped entry inhibition, cell reporter; control for the full effect not named in the record; about a third of the inactives were read at about 46 µM | Potency, µM (doses to about 37.8 µM), inactives show at the highest dose activity change, negative = inhibition, usual class: inhibitors | actives 1.8% (n = 300,000); active = well fitted inhibition curve with a large enough effect; inconclusive = small, poorly fitted or top-dose-only effect, or effect the other way; inactive = flat fitted curve, though single readings scatter; tested in HEK293 cells; about a fifth of its hits are not listed in these tables; note: % is set by controls: 0 for no effect and ±100 for the full control effect; luciferase read-out
# RE007 growth inh = less growth of the S. pombe RE007 Vpr strain; S. pombe RE007 Vpr strain, BacTiter-Glo ATP luminescence, 24 h; control for the full effect not named in the record; Potency, µM (doses to about 92.2 µM), for the others: at the highest dose activity change, negative = less growth; actives 0.21% (n = 360,000); AID 651644; active = well fitted falling curve with a large enough effect; inconclusive = small, poorly fitted or top-dose-only effect; inactive = no such curve, though single readings can be large or run the other way;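 note: % is set by controls: 0 for no effect and ±100 for the full control effect; nearly all actives have a fitted effect of over 50% in size; the assay follows cell death caused by Vpr and the record does not say whether a fall means rescue or toxicity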
#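 Fission yeast RE007 carrying one integrated HIV-1 vpr copy, seeded at OD 0.01 in PMG+AL medium with 23 nL pinned compound. Grown 24 h at 30 degrees; viability read by BacTiter-Glo luminescence after 5 min.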
# Cruzain Triton = inhibitors of Trypanosoma cruzi cruzain with detergent; P25779; purified cruzain, Z-FR-AMC fluorescence, 0.01% Triton; Potency, µM, without a hit: max response, negative = inhibition, most hits filed as inhibitors; actives 0.43% (n = 200,000); AID 1478; active = well fitted curve in the direction sought with a large enough effect; inconclusive = small, poorly fitted or top-dose-only effect, or another doubt; inactive = no such curve, though single readings can be large; an effect the other way counts as inactive or inconclusive;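 note: plate controls were neutral wells for no effect and buffer without enzyme for full effect; nearly all actives have a fitted effect of over 40% in size; top concentration of the series not given in the record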
#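 15 min RT preincubation of 1.5 nM cruzain with compound, then 2 uM Z-FR-AMC added; kinetic AMC fluorescence, 60 s delta. Triton X-100 0.01%, pH 5.5.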
# NS1 function inh = influenza NS1 inhibition; S. cerevisiae slowed by influenza A NS1, growth recovery by OD600; Potency, µM (series often up to 46.1 µM), for inactives: at the top dose activity, positive = more growth; actives 0.4% (n = 270,000); note: actives are rising curves; nearly all actives have a fitted effect of over 50% in size
#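 Read-out: OD600 growth recovery of NS1-expressing budding yeast. Cells grown overnight at 30C in -URA glucose medium, washed, resuspended and diluted 1:100 in 2% galactose assay medium, pH 6.0. Same strain lacking NS1 served as positive control.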
# Active calls of the source: *; ? = inconclusive; · = no result given; [ ] = another dose, or the depositor's remark. Unless noted, calls come from the whole dose curve; as a rule, active means well fitted rising curve with a large enough effect; inconclusive means small, poorly fitted or top-dose-only effect; inactive means no such curve, though single readings can be large or run the other way. Potency is the fitted concentration of half-maximal effect.
# Results follow in this order: SARS PLP yeast | LASV entry inh | Cruzain inh noDet | 2A StopGo | Marburg entry inh | RE007 growth inh | Cruzain Triton | NS1 function inh
- O=C(NCc1ccc2c(c1)OCO2)Nc1ccc([N+](=O)[O-])cc1
→ 1% | -9%[46.1 µM] | · | 1% | 2%[46.1 µM] | -5% | · | 11%
- Cn1c(=O)c(C(=O)NNC(=O)c2ccccc2F)c(O)c2ccccc21
→ -2% | ? | · | -9% | ? | -8% | · | -55%
- COc1ccccc1N1CCN(C(=O)CN2C(=O)c3ccccc3S2(=O)=O)CC1
→ 0% | ? | · | 35%[activator] | ? | -15% | · | -2%
- CCOC(=O)C(Cc1ccc(Cl)cc1Cl)c1ccno1 (stereo not drawn)
→ -1% | -20%[46.1 µM] | · | -10% | -3%[46.1 µM] | -11% | · | -7%
- Cc1cccc([C@H]2[C@@H]3C=CCC[C@@H]3C(=O)N2Cc2ccccc2)c1
→ -67% | · | -3% | -23% | · | 17% | -2.3% | ·
- CCN(CC)c1nn2c(=O)c(C(=O)NCc3cccc(OC)c3OC)cnc2s1
→ · | 3%[46.1 µM] | -9% | -22% | · | · | -11% | ·
- CCOCCc1nn2c(=O)cc(COC(=O)COc3ccc(C)c(C)c3)nc2s1
→ · | 25%[46.1 µM] | 9% | -8% | · | · | -4.0% | ·
- O=C(NCC(O)c1ccccc1)c1cccs1 (stereo not drawn)
→ 0% | · | · | 41%[activator] | · | -14% | · | 4%
- COc1ccc(NC(=O)Nc2nnc(Cc3ccccc3)s2)cc1
→ 0% | · | · | -14% | · | 16% | · | 2%
- CCOC(=O)C(=CNc1cc(C)nn1C(C)(C)C)C(=O)OCC
→ 5% | -2% | 6% | -12% | 12% | -15% | 1.6% | -9%
- O=C(COc1ccccc1)Nc1ccccc1N1CCCCC1
→ -11% | -6% | -6% | ? | ? | -4% | -1.2% | -46%
- O=C(CSc1nnc(Cn2nnc(-c3ccccc3)n2)n1-c1ccccc1)Nc1ccccc1
→ -3% | -10% | 4% | 2% | ? | 12% | -1.0% | -7%
- Cc1ccc(Cl)cc1NC(=O)C1CCCN(S(=O)(=O)c2cccc3cccnc23)C1 (stereo not drawn)
→ · | -17%[46.1 µM] | 6% | -23% | ? | · | -4.2% | ·
- Cc1ccc(S(=O)(=O)N(C)CC(=O)Nc2ccc3c(c2)OCO3)cc1
→ -5% | 3% | · | 9% | ? | 35% | · | 8%
- COc1ccc(C)c2sc(N(Cc3cccnc3)C(=O)COc3ccccc3)nc12
→ · | 8%[46.1 µM] | ? | -8% | · | · | -4.6% | ·
- CCN1CCC(N2CCN(c3ccccc3OC)CC2)CC1
→ -5% | 1% | · | -20% | 19% | -7% | · | 17%
- Cc1cc(Cl)ccc1C(=O)C1CCCN(C(=O)c2cscn2)C1 (stereo not drawn)
→ -2% | -13%[46.1 µM] | · | -17% | ? | -10% | · | -4%
- O=C(NNC(=O)c1ccccc1Cl)c1ccccc1Cl
→ 1% | 3% | · | 48%[activator] | 28%[46.1 µM] | -5% | · | 3%
- CCCCC(=O)Nc1nc(C)c(-c2csc(Nc3ccc(Cl)cc3)n2)s1
→ -3% | · | 7.9µM* | -20% | · | -6% | 0.6% | ?
- CCOC(=O)N1CCN(C(=O)COc2ccc(S(=O)(=O)Nc3ccc(OCC)cc3)cc2)CC1
→ 2% | -10% | ? | -20% | -16% | 3% | -2.6% | -7%
- CNC(=O)c1ccc(-c2sc3nc(N4CCOCC4)c4c(c3c2N)CCCC4)o1
→ -9% | -3% | ? | ? | -15% | -4% | -13% | 10%
- CCc1ccc(NC(=O)C2CCCN(S(=O)(=O)c3cccc4nonc34)C2)cc1 (stereo not drawn)
→ · | ? | -2% | -15% | -6%[46.1 µM] | · | -0.6% | ·
- C=CCNC(=O)C(=O)NCC1CCCN1CC (stereo not drawn)
→ 0% | · | · | 1% | · | 9% | · | 5%
- COc1ccc2nc(N(CCN(C)C)C(=O)c3ccc4ccccc4c3)sc2c1
→ -2% | · | · | 10% | · | -20% | · | -28%
- CNC(=S)N(C)CCc1cc2c(c(OC)c1/C=C1/C(=O)NC(=O)N(C)C1=O)OCO2
→ 0% | · | · | -10% | · | 1% | · | 0%
- CCOc1ccc(-c2c(C)n([O-])c3c([n+]2=O)CCCCC3)cc1
→ 1% | 6%[46.1 µM] | · | 9% | 7%[46.1 µM] | 4% | · | -3%
- C=CCn1c(C)cc(C(=O)Cn2ncc(Cl)c(Cl)c2=O)c1C
→ -29% | ? | ? | ? | ? | -16% | -3.6% | 4%
- COc1ccc(S(=O)(=O)N2CCCCC2C)cc1 (stereo not drawn)
→ -2% | · | · | -2% | · | 9% | · | -4%
- CCOc1ccccc1N(C(=O)Nc1ccc(Cl)cc1)C1=NC(C)CS1 (stereo not drawn)
→ 10% | · | 6% | 0% | · | -20% | -5.7% | -10%
- CCN(CC)S(=O)(=O)c1ccc(NC(=O)C(C)N(c2ccccc2)S(C)(=O)=O)cc1 (stereo not drawn)
→ 11% | ? | 17% | -16% | 2% | 2% | -5.1% | 0%

# Copied from above (3 entries):
# Results follow in this order: SARS PLP yeast | LASV entry inh | Cruzain inh noDet | 2A StopGo | Marburg entry inh | RE007 growth inh | Cruzain Triton | NS1 function inh
- COc1ccc(S(=O)(=O)N2CCCCC2C)cc1 (stereo not drawn)
→ -2% | · | · | -2% | · | 9% | · | -4%
- CCOc1ccccc1N(C(=O)Nc1ccc(Cl)cc1)C1=NC(C)CS1 (stereo not drawn)
→ 10% | · | 6% | 0% | · | -20% | -5.7% | -10%
- CCN(CC)S(=O)(=O)c1ccc(NC(=O)C(C)N(c2ccccc2)S(C)(=O)=O)cc1 (stereo not drawn)
→ 11% | ? | 17% | -16% | 2% | 2% | -5.1% | 0%

# Later entries.
# Results follow in this order: SARS PLP yeast | LASV entry inh | Cruzain inh noDet | 2A StopGo | Marburg entry inh | RE007 growth inh | Cruzain Triton | NS1 function inh
- Cc1nnc(NC(=O)CSC2CCCCC2)s1
→ 6% | · | -9% | 7% | · | 13% | 1.8% | -63%
- COc1ccccc1OCCCCOc1ccccc1F
→ 2% | 13% | -5% | · | 20% | -7% | -1.0% | -1%
- Cc1ccc(NC(=O)CCN2C(=O)c3ccccc3C2=O)cc1
→ -1% | 15% | · | 3% | ? | 22% | · | -12%
- Cc1c(-c2ccccc2)nc2ccccc2c1C(=O)OCC(=O)Nc1ncc(C(F)(F)F)cc1Cl
→ 1% | 13% | ? | ? | 14% | 14% | -6.2% | ?
- COc1ccc(/C=C2\OC(=S)N(C)C2=O)cc1
→ -66% | 3% | -16% | · | ? | -4% | -2.9% | -20%
- COC(=O)C(C)n1cnc2c(nnn2-c2ccc(OC)cc2)c1=O (stereo not drawn)
→ 12% | 29% | 0% | 43%[activator] | 13% | 8% | 0.8% | 7%
- CCOC(=O)c1ccc(NC(=O)c2csnn2)cc1
→ · | 9%[46.1 µM] | 1% | 29% | ? | · | -3.5% | ·
- CC(C)Cn1c(-c2csc(C(C)C)c2)n[nH]c1=S
→ -2% | -2%[46.1 µM] | · | -16% | ? | 127% | · | -7%
- CC(=O)c1c(N2CCOCC2)nc2ccc(Br)cc2c1-c1ccccc1
→ -13% | ? | · | ? | ? | 7% | · | 0%
- CN(C)C(=S)Oc1ccccc1-c1ccccc1OC(=S)N(C)C
→ 16% | · | · | -17% | · | 40% | · | 15%
- Cc1cc2nnc(SCc3ccc(F)cc3)n2c2ccccc12
→ · | -28%[46.1 µM] | ? | 5% | 1%[46.1 µM] | · | -7.1% | ·
- CN(C)c1nc(Cl)cc(N2CCOCC2)n1
→ -2% | 9% | -8% | 23% | 16% | 2% | 3.5% | -15%
- CC(=O)Oc1ccc(/C=C/c2nc3ccccc3c(=O)o2)cc1
→ -1% | ? | · | -12% | ? | 16% | · | -9%
- S=C(Nc1cccnc1)NC1CCCC1
→ 12% | 17% | -4% | -4% | 1% | 15% | 2.2% | 1%
- Cc1cccc(C(=O)NNC(=O)c2n[nH]c(=O)c3ccccc23)c1C
→ -4% | 0% | · | 29% | 8% | 10% | · | ·
- COc1ccc(NC(=O)CSc2nc(C)cc(C)n2)c([N+](=O)[O-])c1
→ 2% | 0% | · | -5% | 3%[46.1 µM] | 20% | · | -2%
- COc1ccc(-c2nc(CSCC(=O)NC3CCCC3)c(C)o2)cc1OC
→ -2% | -23%[46.1 µM] | · | -24% | -15%[46.1 µM] | -1% | · | -4%
- O=C1C2C3C=CC(CC3)C2C(=O)N1/N=C/c1ccccc1O (stereo not drawn)
→ 5.6µM* | -6% | 0% | · | 0% | -10% | 2.7% | -14%
- CC(C)Cc1nn2c(=O)cc(COC(=O)CNC(=O)c3ccc(C(C)(C)C)cc3)nc2s1
→ · | 19%[46.1 µM] | ? | -22% | · | · | -2.8% | ·
- COC(=O)C1=C(C)N(CCc2ccccc2)C(=O)C1(NS(=O)(=O)c1ccc(NC(C)=O)cc1)C(F)(F)F (stereo not drawn)
→ 0% | 2% | ? | 1% | 1% | -3% | -3.9% | -4%
- Cc1cc(C)c(C)c(C(O)(C(=O)O)c2ccccc2)c1C (stereo not drawn)
→ · | 22% | · | -13% | 28% | 8% | · | ·
- COc1ccccc1CNC(=O)c1ccncc1
→ 11% | · | · | 0% | · | 15% | · | 2%
- O=C1CSc2ccc(C(=O)Nc3cccc(S(=O)(=O)Nc4ccc(Br)cc4)c3)cc2N1
→ -1% | · | · | -29% | · | 6% | · | 19%
- C=CCCCOc1ccc(C(=O)O)cc1
→ -24% | -12% | 6% | 5% | 5% | 0% | -0.8% | -56%
- Cc1cccc(-c2noc(C3CCCCC3)n2)c1
→ · | ? | -10% | 82%[activator] | ? | 0% | 8.7% | 2%
- Cn1c(=O)n(CCN2CCOCC2)c(=O)c2c1nc1n2CCN1c1ccc(Oc2ccccc2)cc1
→ 2% | -3% | 26% | -11% | 15% | 13% | -2.1% | 14%
- Cc1cc(C(=O)OCC(=O)NC2CCCC2)c2ccccc2n1
→ 2% | 1% | · | -28% | 2% | 6% | · | ·
- O=C(O)CC/C(=C\c1ccccc1[N+](=O)[O-])c1nc2ccccc2s1
→ 0% | 2% | · | 5% | -13% | -8% | · | 4%
